Screening results as filed in PubChem.
RGS16-Gao HTS = modulators of RGS16 binding to Galphao, primary screen, biochemical, human proteins, multiplexed bead flow cytometry; binding response (% of control), % at 10 µM; actives 0.38% (n = 220,000); bead-based flow cytometry RGS16-Galphao binding, fluorescence; actives lie on both sides; Regulator of G-protein signaling 16 (Homo sapiens) + Guanine nucleotide-binding protein …; AID 1441, 2008;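 active means below 25% or above 175%, edge rows of some plates excepted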;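 further: Galphao activated by GDP with aluminum fluoride before binding; 100% = wells without compound and 0% = beads without RGS; some results beyond the cut were filed as inactive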
Target sequence (O15492 whole entry, looked up): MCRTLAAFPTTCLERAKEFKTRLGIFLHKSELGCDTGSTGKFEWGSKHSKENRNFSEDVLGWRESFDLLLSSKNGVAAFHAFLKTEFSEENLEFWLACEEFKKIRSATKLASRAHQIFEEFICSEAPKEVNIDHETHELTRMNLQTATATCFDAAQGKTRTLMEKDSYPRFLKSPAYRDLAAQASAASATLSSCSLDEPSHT
Target sequence (P09471 whole entry, looked up): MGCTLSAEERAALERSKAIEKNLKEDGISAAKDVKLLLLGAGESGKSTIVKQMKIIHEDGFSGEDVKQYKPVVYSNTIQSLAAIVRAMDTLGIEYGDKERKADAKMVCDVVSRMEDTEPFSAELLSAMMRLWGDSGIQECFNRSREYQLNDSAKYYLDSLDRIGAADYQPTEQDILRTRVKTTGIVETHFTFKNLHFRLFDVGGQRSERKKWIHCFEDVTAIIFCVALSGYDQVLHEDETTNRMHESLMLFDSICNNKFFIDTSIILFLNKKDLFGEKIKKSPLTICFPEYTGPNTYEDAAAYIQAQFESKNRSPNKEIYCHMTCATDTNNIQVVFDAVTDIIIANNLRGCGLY
PKD1 kinase inh = inhibitors of human PKD1 kinase, biochemical, fluorescence polarization | Serine/threonine-protein kinase D1 (Homo sapiens), Q15139 | PKD1 kinase fluorescence polarization assay | inhibition, %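 (about 10 µM by stock and volumes)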 | actives 0.056% (n = 200,000);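 active means inhibition of 50% or more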;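 further: controls were vehicle for no effect and a reference inhibitor for full effect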
GALR2 agonist = GALR2 receptor agonists, primary screen, cell-based; activation, %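 (tested at 5 µM)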; GALR2-expressing cells, agonist activation read-out; actives 0.48% (n = 140,000); Galanin receptor type 2 (Homo sapiens), O43603;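 active means above mean plus 3 SD of all compounds, about 5% in these data, not always enough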;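 further: 0% = vehicle buffer wells and 100% = reference agonist at full effect; tested in CHO reporter cells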
Target sequence (O43603 whole entry, looked up): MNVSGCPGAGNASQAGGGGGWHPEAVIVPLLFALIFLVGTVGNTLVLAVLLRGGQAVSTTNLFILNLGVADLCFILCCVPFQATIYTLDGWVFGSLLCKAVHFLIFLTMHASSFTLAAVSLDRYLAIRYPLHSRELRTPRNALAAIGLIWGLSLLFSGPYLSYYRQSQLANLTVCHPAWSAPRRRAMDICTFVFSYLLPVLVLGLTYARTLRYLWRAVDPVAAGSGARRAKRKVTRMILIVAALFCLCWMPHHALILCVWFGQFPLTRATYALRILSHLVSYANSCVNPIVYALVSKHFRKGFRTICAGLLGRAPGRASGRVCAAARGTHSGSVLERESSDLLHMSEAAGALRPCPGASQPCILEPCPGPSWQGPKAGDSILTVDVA
Insulin prom inh = inhibitors of insulin promoter-driven GFP, primary screen, imaging, TRM-6 cells (human fetal islet line), eGFP reporter, cell count | reporter expression induced with tamoxifen | actives 0.9% (n = 130,000) | inhibition, % at 2 µM | AID 1273, 2008;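 active means inhibition above the mean plus 3 SD, with well images judged a real hit on visual review, cut at about 60% in these data, passing the limit was not always enough; inconclusive means inhibition over the cutoff but images rejected on review; inactive means inhibition not above the cutoff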
HSV augment = enhancers of HSV replication in host cells, fold increase, host cell viability; maximum fold increase; AID 1956, 2009; HSV replication augmentation in cells; actives 0.005% (n = 220,000);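 active means peak rise of 1.5-fold or more in the series; inconclusive means self-fluorescent or not available for retest; tested in PC3 cells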;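 further: first round at 10 µM; read as green reporter fluorescence; hits show the peak of a series up to 25 µM; 1 = signal of infected wells without compound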
Insulin prom inh cell count = recorded beside Insulin prom inh, whose call it bears; normalized cell count, %; measured here: cell count, toxicity; reference of the scale not given here;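 cells exposed to compound for 48 h; stained nuclei by imaging scaled within each plate; lower means fewer cells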
HSV augment primary fold = recorded beside HSV augment, whose call it bears; fold increase; compound at 10 µM; measured here: primary screen fold increase 10 uM; tested in PC3 cells;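 GFP signal in the first replicate; 1 = infected wells without compound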
* marks the source's active call; other numbers are inactive results; i = inactive; ? = inconclusive; nt = not tested or not shown.

SMILES	RGS16-Gao HTS	PKD1 kinase inh	GALR2 agonist	Insulin prom inh	Insulin prom inh cell count	HSV augment	HSV augment primary fold
CC(C)CCn1c(N2CCN(c3cccc(Cl)c3)CC2)nc2c1c(=O)[nH]c(=O)n2C	98	-14	-0.5	nt	nt	i	0.8
Oc1c(Br)cccc1/C=N/Nc1c(F)c(F)c(F)c(F)c1F	100	-3	-1.4	nt	nt	i	0.65
CC(=O)C(N=Nc1ccccc1)(Sc1nnc(-c2ccccc2)n1-c1ccccc1)C(=O)Nc1ccccc1 (centres undefined)	106	-6	-0.1	nt	nt	i	0.98
COc1ccc(C(=O)N/C(=C\c2ccccc2)C(=O)NC(CCSC)C(=O)O)cc1 (centres undefined)	101	-10	-1.4	42	77	i	0.91
Cc1onc(-c2ccccc2)c1NC(=O)N(Cc1ccccc1)C(C)C	93	nt	nt	nt	nt	i	1
O=C(COC(=O)c1ccc(Cl)c(S(=O)(=O)N2CCCC2)c1)NC1CCCC1	107	-3	-1.3	12	112	i	1
CC(C)Cc1nn2c(N)c(/C=C3\C=Nc4ccccc43)c(=O)nc2s1	130	-3	nt	-305	8	i	0.94
Cc1nnc(N2C(=O)C(O)=C(C(=O)c3ccco3)C2c2ccc(C(C)(C)C)cc2)s1 (centres undefined)	120	2	0.2	7	49	i	1.1
COc1ccc(CCN2C(=O)CSC2=Nc2ccc(C(C)C)cc2)cc1OC	108	nt	nt	nt	nt	i	1.1
Cc1ccc(-c2cc(C(=O)Nc3ccc(S(=O)(=O)N4CC(C)OC(C)C4)cc3)[nH]n2)c(O)c1 (centres undefined)	100	nt	nt	nt	nt	i	0.91
CCOC(=O)Nc1ccc(S(=O)(=O)Nc2cc(C)on2)cc1	102	2	0.4	38	100	i	0.93
Cc1sc2nc(SCC(=O)NCc3cccs3)[nH]c(=O)c2c1C	97	1	-0.6	91*	136*	i	0.86
CNC(=O)OCc1cccc(COC(=O)NC)n1	102	-6	-0.6	-35	185	i	0.99
Cc1cccc(/N=C/c2c(O)[nH]c3ccccc23)n1	102	11	-0.8	-21	124	i	1
CCOc1ccccc1NC(=O)Nc1cc(OC)ccc1OC	112	-7	-1.9	10	92	i	1

A different layout for some results above.
| Molecule | RGS16-Gao HTS | PKD1 kinase inh | GALR2 agonist | Insulin prom inh | Insulin prom inh cell count | HSV augment | HSV augment primary fold |
| --- | --- | --- | --- | --- | --- | --- | --- |
| Oc1c(Br)cccc1/C=N/Nc1c(F)c(F)c(F)c(F)c1F | 100 | -3 | -1.4 | nt | nt | i | 0.65 |
| CC(=O)C(N=Nc1ccccc1)(Sc1nnc(-c2ccccc2)n1-c1ccccc1)C(=O)Nc1ccccc1 (centres undefined) | 106 | -6 | -0.1 | nt | nt | i | 0.98 |

Further structures:
SMILES	RGS16-Gao HTS	PKD1 kinase inh	GALR2 agonist	Insulin prom inh	Insulin prom inh cell count	HSV augment	HSV augment primary fold
Fc1ccc(C2=CC(c3ccc(Br)o3)n3ncnc3N2)cc1 (centres undefined)	93	-8	0.1	0	190	?	nt
CCOc1ccc(C)cc1-n1nc2ccccc2n1	96	1	-0.7	26	135	i	1
CCN1CCC2(CC1)N=C(c1ccc(F)cc1)C(=S)N2C(=O)c1ccc(C(C)(C)C)cc1	97	7	-0.7	nt	nt	i	1.1
COc1ccccc1NC(=O)C1C2C=CC(O2)C1C(=O)O (centres undefined)	96	2	-1.9	15	88	i	0.93
COCCn1c(C)cc(C(=O)COC(=O)c2ccc(Br)o2)c1C	98	-7	nt	nt	nt	i	0.98
O=C(Cn1c(=O)oc2ccccc21)Nc1ccccc1N1CCOCC1	62	-5	nt	-89	48	i	1.1
Brc1ccc(-c2cn3c(n2)SCC3)cc1	117	-1	nt	nt	nt	i	0.94
Cc1ccc(S(=O)(=O)NNC(=O)C2COc3ccccc3O2)cc1 (centres undefined)	113	-5	0.7	7	118	i	0.92
COc1ccccc1CCC(=O)OCC(=O)Nc1ccc(S(N)(=O)=O)cc1	103	-3	nt	27	82	i	1.1
Cn1nc(C(F)(F)F)c(-c2ccccc2)c1N	101	nt	nt	nt	nt	i	0.99
Cc1cccc(Oc2ncnc3onc(C)c23)c1	88	-13	-1.6	-10	126	i	0.87
Cc1cccc(C)c1NC(=O)CCN1C(=O)C2C3CCC(C3)C2C1=O (centres undefined)	100	1	1.2	26	88	i	0.63
Cc1cccc(N(C(=O)Cc2cccs2)C(C(=O)NCc2ccco2)c2ccncc2)c1 (centres undefined)	103	4	nt	-107	59	i	0.95
Cc1nc2c(C#N)cnn2c2c1CCN(Cc1ccccc1)N2C	98	-6	nt	nt	nt	i	0.91
COC(=O)CSc1nnc(-c2ccc(S(=O)(=O)N3CCCCC3)cc2)o1	99	4	-2.8	-28	97	i	0.62

Fetched one by one from above, three records:
SMILES	RGS16-Gao HTS	PKD1 kinase inh	GALR2 agonist	Insulin prom inh	Insulin prom inh cell count	HSV augment	HSV augment primary fold
Cc1cccc(N(C(=O)Cc2cccs2)C(C(=O)NCc2ccco2)c2ccncc2)c1 (centres undefined)	103	4	nt	-107	59	i	0.95
COc1ccc(CCN2C(=O)CSC2=Nc2ccc(C(C)C)cc2)cc1OC	108	nt	nt	nt	nt	i	1.1
Cc1ccc(-c2cc(C(=O)Nc3ccc(S(=O)(=O)N4CC(C)OC(C)C4)cc3)[nH]n2)c(O)c1 (centres undefined)	100	nt	nt	nt	nt	i	0.91

Going on with the list:
SMILES	RGS16-Gao HTS	PKD1 kinase inh	GALR2 agonist	Insulin prom inh	Insulin prom inh cell count	HSV augment	HSV augment primary fold
COc1ccc(OC)c(/C=C/C(=O)NCCc2nc3ccccc3[nH]2)c1	97	nt	nt	nt	nt	i	0.97
COc1ccc(N2C(=O)CC(NC3CC3)C2=O)cc1 (centres undefined)	93	-4	-2.5	-47	213	i	1.1
c1ccc(CSc2nnnn2-c2ccccc2)cc1	82	-1	-1.0	17	89	i	0.91
COc1ccc(C2CC(c3ccccc3)=NN2c2ccccc2)c(C(=O)O)c1OC (centres undefined)	102	0	nt	nt	nt	i	0.89
O=C(Nc1ccccc1N1CCCCC1)c1ccc2nccnc2c1	97	-1	2.9	nt	nt	i	1
Cc1ccc(CN2CCN(CC(=O)N/N=C/c3c[nH]c4ccccc34)CC2)cc1	103	2	-1.4	15	121	i	0.87
Cc1sc(NC(=O)CSc2nc(O)cc(=O)[nH]2)nc1-c1ccccc1	104	0	nt	nt	nt	i	1.2
CCc1ccc2c(CN(CC)Cc3nc4ccccc4c(=O)[nH]3)cc(=O)oc2c1	102	-1	0.5	22	174	i	0.93
CCC(C)[C@H](NC(=O)OC(C)(C)C)C(=O)N/N=C/c1cccc2nccnc12 (some centres undefined)	94	-10	4.5	-427	74	i	0.9
CC1(C)Cc2c(c(N3CCOCC3)nc3sc(-c4ccc(C(=O)O)o4)c(N)c23)CO1	100	-6	0.6	3	81	i	1.2
Cc1ccc(-c2nn(-c3ccccc3)cc2/C=C/C(=O)Nc2cccc(S(N)(=O)=O)c2)cc1	97	-4	nt	nt	nt	i	0.86
Cc1cc(NCCCN(C)C)n2nc(-c3cccs3)cc2n1	101	-1	-1.7	-6	91	i	0.91
S=C(NCc1ccco1)N1CCN(Cc2ccco2)CC1	108	-17	-2.2	nt	nt	i	1
CCCc1cc(=O)[nH]c(SCC(=O)Nc2ncc(S(=O)(=O)c3ccc([N+](=O)[O-])cc3)s2)n1	100	nt	nt	nt	nt	i	0.98
CCOC(=O)c1cnn(-c2ccc(NS(=O)(=O)c3ccc(Cl)cc3)cc2)c1C(F)(F)F	107	nt	nt	nt	nt	i	1.3

The closing six records of the part above lead into the next:
SMILES	RGS16-Gao HTS	PKD1 kinase inh	GALR2 agonist	Insulin prom inh	Insulin prom inh cell count	HSV augment	HSV augment primary fold
CC1(C)Cc2c(c(N3CCOCC3)nc3sc(-c4ccc(C(=O)O)o4)c(N)c23)CO1	100	-6	0.6	3	81	i	1.2
Cc1ccc(-c2nn(-c3ccccc3)cc2/C=C/C(=O)Nc2cccc(S(N)(=O)=O)c2)cc1	97	-4	nt	nt	nt	i	0.86
Cc1cc(NCCCN(C)C)n2nc(-c3cccs3)cc2n1	101	-1	-1.7	-6	91	i	0.91
S=C(NCc1ccco1)N1CCN(Cc2ccco2)CC1	108	-17	-2.2	nt	nt	i	1
CCCc1cc(=O)[nH]c(SCC(=O)Nc2ncc(S(=O)(=O)c3ccc([N+](=O)[O-])cc3)s2)n1	100	nt	nt	nt	nt	i	0.98
CCOC(=O)c1cnn(-c2ccc(NS(=O)(=O)c3ccc(Cl)cc3)cc2)c1C(F)(F)F	107	nt	nt	nt	nt	i	1.3
CCCC(=O)NC(=S)Nc1sc2c(c1C(N)=O)CCC2	99	-8	-1.9	8	88	i	1
CC(C)n1c(=N)c(C(=O)NCCc2ccccc2)cc2c(=O)n3ccccc3nc21	106	14	18*	9	101	i	0.93
Cc1ccc(NS(=O)(=O)c2ccc(CCC(=O)O)cc2)cc1	101	-8	-0.8	nt	nt	i	1.3
Cc1ccc(CN(c2ccc(C(=O)N3CCc4ccccc4C3)cc2)S(C)(=O)=O)cc1	89	1	-0.1	23	117	i	0.94
CCOC(=O)N1CCN(C(=O)c2ccc(C)c(S(=O)(=O)Nc3ccccc3)c2)CC1	95	1	-1.4	23	102	i	0.94
CCc1nnc(NC(=O)CCN2C(=O)c3ccccc3C2=O)s1	120	0	-2.3	nt	nt	i	1.1
O=C1CCN(S(=O)(=O)c2ccccc2)CCN1CCOCc1ccc(Cl)cc1	100	nt	nt	nt	nt	i	1
C=CCN=C1SC(C)C(=O)N1S(=O)(=O)c1ccccc1 (centres undefined)	102	-2	-2.1	45	99	i	0.87
O=C(NCc1ccncc1)/C(=N/O)c1ccccc1	105	-5	-1.8	15	115	i	0.69
CCC(C)N1CC23C=CC(O2)C(C(=O)OCc2ccccc2)C3C1=O (centres undefined)	105	-3	-0.7	13	89	i	0.91
COCCSc1ccccc1C(=O)N1CCN(Cc2ccccc2)CC1	104	1	nt	nt	nt	i	0.98
COc1ccc(CNC(=O)C2CC(c3ccccc3C(F)(F)F)=NO2)cc1 (centres undefined)	105	nt	nt	nt	nt	i	0.9
O=C(/C=C/c1ccc2c(c1)OCO2)N1CCN(c2ccccc2F)CC1	38	0	-0.1	-14	48	i	0.97
COc1ccc(/C=N/Nc2ccccc2C(=O)O)cc1Cn1cc([N+](=O)[O-])cn1	102	nt	nt	nt	nt	i	0.98
CC(=O)N/C(=C/c1ccccc1)C(=O)N1CCCCC1	98	7	-1.0	3	85	i	0.95
Cc1cc(C)n2cc(CSc3nnc(SCc4cn5c(C)cc(C)nc5n4)s3)nc2n1	98	-10	-0.6	20	85	?	nt
C=CCC1c2cccc(C(=O)OC)c2C(=O)N1c1ccccc1 (centres undefined)	111	4	-1.0	-45	44	i	1.1
CC(C)(C)n1nnnc1CN(Cc1ccco1)Cc1cc2cc3c(cc2[nH]c1=O)OCO3	100	-9	-1.8	19	66	i	1
O=C(Cc1ccccc1[N+](=O)[O-])Nc1ccc2c(c1)OCO2	106	-10	nt	-3	86	i	1
COc1ccc(OC)c(-c2cc(C(=O)Nc3ccc(F)cc3F)no2)c1	100	-5	nt	nt	nt	i	0.87
CCOc1ccc(N(CC(=O)NCCC2=CCCCC2)S(=O)(=O)c2ccccc2)cc1	93	-1	nt	nt	nt	i	1.1
Cc1ccc(C(=O)NC(C#N)=C(Cl)Cl)cc1	87	-3	nt	-28	41	i	0.72
O=C(CN1C(=O)c2ccccc2C1=O)NCc1ccncc1	101	-1	-0.5	nt	nt	i	1.1
CCC(C)n1c(SCc2ccc([N+](=O)[O-])cc2)nc2ccsc2c1=O (centres undefined)	107	7	-0.9	10	89	i	0.95
CCOC(=O)N1CCN(c2cc(=O)n(-c3ccc(C)cc3)c(=O)[nH]2)CC1	101	-1	nt	-6	84	i	1
